Assay outcomes deposited in PubChem by National Center for Advancing Translational Sciences (NCATS).
Vaccinia mCherry = inhibitors of vaccinia virus infection (mCherry reporter signal) | 310,000 tested, 0.63% active | AID 720579 | Potency, µM (highest dose often 36.5 µM), for inactives: top-dose activity change, negative = inhibition, actives largely listed as inhibitors | Vaccinia virus mCherry reporter infection, fluorescence; about a quarter of the inactives have no number; active = well fitted inhibition curve with a large enough effect; inconclusive = small, poorly fitted or top-dose-only effect; inactive = no such curve, though single readings can be large or run the other way; tested in A549 cells; further: nearly all actives have a fitted effect of over 35% in size; inactives centre near -10
VACV Venus inh = inhibitors of vaccinia virus (Venus reporter) | 330,000 tested, 0.46% active | Potency, µM (highest dose often 36.5 µM), for the others: at the highest dose activity change, negative = inhibition, most hits filed as inhibitors | Vaccinia virus Venus reporter expression, fluorescence | AID 720580; active means well fitted inhibition curve with a large enough effect; inconclusive means small, poorly fitted or top-dose-only effect; inactive means no such curve, though single readings can be large or run the other way; tested in A549 cells; further: nearly all actives have a fitted effect of over 30% in size; inactives centre near -10
* hit, by the source's call; i = inactive; ? = inconclusive; / = not tested or not shown; [ ] = dose if it differs, or a comment. On the % scale 0 is the no-effect control and ±100 the full control effect; potency means the concentration at half of the fitted maximal effect. This is a random part of the collection; overall some 0.82% were active at least once.

Order of values – Vaccinia mCherry	VACV Venus inh
1) CCOC(=O)C1(Cc2cccc(Cl)c2)CCCN(C(=O)CCC(=O)N(C)C)C1 (centres undefined)
    i	-23.9%
2) COc1ccc2[nH]cc(CCNc3nc(-c4cccc(NS(C)(=O)=O)c4)nc4ccccc34)c2c1
    -21.7%	-12.4%
3) Cc1cc(S(=O)(=O)Nc2ccc(C(=O)NCC3(N(C)C)CCCCC3)cc2)ccc1F
    -18.5%	-14.9%
4) COc1ccccc1N(CC(=O)NCc1ccccc1)C(=O)CCC(=O)Nc1cc(C)ccn1
    -19.8%	-10.5%
5) CCC1CCCCN1C(=O)CNCC1CCCO1 (centres undefined)
    -6.2%	-4.4%
6) CN(C)N=Nc1nc2c(c(=O)n(C)c(=O)n2C)n1C
    -11.3%	-3.1%
7) Cc1cc(-c2ccnc(-n3ncc(C(=O)N(C)CC(O)c4ccccc4)c3C)n2)c(C)s1 (centres undefined)
    -10.2%	5.4%
8) CCN(C[C@H]1N[C@@](C)(C(=O)OC)[C@H]2C(=O)N(C)C(=O)[C@@H]12)S(=O)(=O)c1ccccc1
    i	-3.2%
9) COc1ccnc(Oc2ccccc2)c1C(=O)N/C=N/OCc1ccccc1
    -13.7%	-11.5%
10) COc1ccc(CN2CCNC(=O)C2CC(=O)N(C)Cc2cc(C)no2)cc1OC (centres undefined)
    i	0.1%
11) Cc1ccc(NC(=O)Cn2c(=O)oc3cc(S(=O)(=O)N4CCC(C)CC4)ccc32)cc1C
    -25.8%	?
12) Cc1ccc(C(NC(=O)C(C)C)c2cc([N+](=O)[O-])c3cccnc3c2O)cc1 (centres undefined)
    -29.7%	?
13) O=S(=O)(Cc1ccccc1)NCCc1ccc(F)cc1
    -1.5%	-6.3%
14) Cc1ccc(NC(=S)N(CCCN2CCN(C)CC2)Cc2cccs2)cc1C
    -27.4%	-29.3%
15) O=C(c1ccccc1[N+](=O)[O-])N1CCC2(CC1)OCCO2
    -11.9%	-9.7%
16) CN1CCN(C2(CNC(=O)c3ccc([N+](=O)[O-])cc3)CCCCC2)CC1
    3.3%	-7.9%
17) O=C(CSc1nnc(CNC(=O)c2cccs2)o1)NC1CCCC1
    -2.2%	-16.1%
18) COc1ccc(OCCn2cc(/C=N/NC(=O)c3ccncc3)c3ccccc32)cc1
    i	-10.5%
19) COc1cccc(Sc2ccccc2CN(C)C)c1
    /	-15.8%
20) O=C1c2ccccc2NC(c2ccccn2)N1NS(=O)(=O)c1ccccc1 (centres undefined)
    -3.1%	-18.1%
21) CC(C)=C1C2C=CC1C(C(=O)Nc1cc(C)ccc1C)C2C(=O)O (centres undefined)
    /	-5.7%
22) COc1ccccc1CC(=O)NCc1csc(-c2cccs2)n1
    i	-5.9%
23) C=CC[C@H](CC(=O)NCCO)C(=O)N[C@@H](C)COC(=O)[C@H](CC=C)CC(=O)OC(C)(C)C
    i	-4.0%
24) CCOC(=O)N1CCC(NC(=O)CCCN2C(=O)CSc3ncccc32)CC1
    i	-15.5%
25) COc1ccc(C(=O)Cn2c(Cl)nc3c2c(=O)n(C)c(=O)n3C)cc1
    i[7.34 µM]	-1.4%[7.34 µM]
26) Cc1ccc(/C=C/C(=O)O)cc1S(=O)(=O)NCc1cccnc1
    i	-8.7%
27) O=C(Nc1cccc(C(F)(F)F)c1)c1ccc2snnc2c1
    -1.3%	-0.5%
28) Cc1cc(/C=C2/C(=O)NC(=O)N(Cc3ccco3)C2=O)c(C)n1-c1ccc(C(=O)O)cc1
    -7.7%	-7.1%
29) COC(=O)[C@H](CCSC)NC(=O)Nc1ccc(C)cc1C
    -10.6%	-5.4%
30) COc1ccc(OC)c(NC(=O)C(C)n2c(=O)c(-c3ccccc3NC(C)=O)nc3ccccc32)c1 (centres undefined)
    -14.2%	-11.4%
31) O=C(CCc1nc2ccccc2c(=O)[nH]1)Nc1ccc(F)c([N+](=O)[O-])c1
    i	11.0%
32) Cc1ccc(NC(=O)CCNS(=O)(=O)c2ccc3[nH]c(=O)oc3c2)c(Cl)c1
    i	-10.1%
33) O=C(Cn1cc(C(F)(F)F)ccc1=O)N/N=C/c1ccc(Cl)cc1
    -9.9%	-12.3%
34) COc1cc(S(=O)(=O)N(Cc2ccccn2)Cc2ccco2)ccc1-n1cnnn1
    i	-7.9%
35) CC(=O)Nc1ccc(NC(=O)CSc2nccn2Cc2ccc3c(c2)OCO3)cc1
    i	-14.7%
36) CC(C)CC(c1nnnn1Cc1ccco1)N1CCN(c2cccc(Cl)c2)CC1 (centres undefined)
    -11.9%	-26.2%
37) CCOc1ccc(S(=O)(=O)c2c(C(=O)c3ccc(CC)cc3)cnc3ccc(C)cc23)cc1
    -23.8%	-15.1%
38) Cc1cc(C)c2c(c1)NP(=S)(c1ccccc1)N2 (centres undefined)
    i	-14.9%
39) CC1CCCN1c1ccnc2cc(Cl)ccc12 (centres undefined)
    -13.4%	-7.7%
40) Cc1cc(NC(=O)c2ccc(N(C)S(=O)(=O)c3ccccc3)cc2)no1
    -27.3%	-15.9%
41) Cn1c(=O)n(CCN2CCOCC2)c(=O)c2c1nc1n2CCN1c1ccc(Oc2ccccc2)cc1
    -6.5%	-3.6%
42) Cc1cc(C(=O)OCC(=O)NC2CCCC2)c2ccccc2n1
    -11.3%	-6.1%
43) O=C(O)CC/C(=C\c1ccccc1[N+](=O)[O-])c1nc2ccccc2s1
    -13.2%	-13.4%
44) Cc1cccc(C)c1NC(=O)Cn1nnc(-c2ccc(CN3CCC(C)CC3)cc2)n1
    -9.9%	-3.0%
45) CC(C)CN(C(=O)CN1CCN(c2ccc([N+](=O)[O-])cc2)CC1)c1c(N)n(CC(C)C)c(=O)[nH]c1=O
    -25.8%	1.8%
46) CC(=O)N1CCN(C(=O)c2ccc(NS(=O)(=O)c3ccc(Cl)c(Cl)c3)cc2)CC1
    -18.6%	-7.2%
47) COc1ccc(OC)c(NC(=O)Nc2nnc([C@@H]3O[C@H](CO)[C@@H](O)[C@H]3O)s2)c1
    41.0%[activator]	1.1%
48) CNc1nc(-c2ccccn2)nnc1-c1ccccc1
    ?	?
49) O=C(c1cnc2ccc3ccccc3c2c1)c1cc(F)ccc1O
    ?	-12.3%
50) COc1ccc(CN(Cc2ccccc2)C(=O)Nc2ccccc2)cc1COc1ccc(NC(C)=O)cc1
    -23.3%	-18.6%
51) Fc1ccccc1CNc1ccc(Cl)cc1
    -18.6%	-15.3%
52) Cc1cc(C)n2nc(C(=O)OC(C)C(=O)c3cc(C)c(C)cc3C)nc2n1 (centres undefined)
    -15.6%	-12.5%
53) O=C(Nc1ccccc1)C1Cc2c(-c3ccc(Cl)cc3)ccnc2O1 (centres undefined)
    i	8.9%
54) CCOC(=O)c1[nH]c(C)c(C(=O)OCc2c(C)noc2C)c1C
    -8.1%	?
55) CC(=O)Oc1ccc(/C=C/c2nc3ccccc3c(=O)o2)cc1
    -7.5%	-19.5%
56) S=C(Nc1cccnc1)NC1CCCC1
    -7.6%	-2.5%
57) Cc1cccc(C(=O)NNC(=O)c2n[nH]c(=O)c3ccccc23)c1C
    -14.0%	-14.3%
58) COc1ccc(NC(=O)CSc2nc(C)cc(C)n2)c([N+](=O)[O-])c1
    -23.2%	4.2%
59) COc1cccc2sc3cc(NCc4ccc(C)o4)ccc3c(=O)c12
    -20.6%	-27.5%
60) COc1ccc(-c2nc(CSCC(=O)NC3CCCC3)c(C)o2)cc1OC
    -20.6%	-15.6%

Some of these compounds in order of formula weight, highest first.
Order of values – Vaccinia mCherry	VACV Venus inh
43) O=C(O)CC/C(=C\c1ccccc1[N+](=O)[O-])c1nc2ccccc2s1
    -13.2%	-13.4%
49) O=C(c1cnc2ccc3ccccc3c2c1)c1cc(F)ccc1O
    ?	-12.3%
51) Fc1ccccc1CNc1ccc(Cl)cc1
    -18.6%	-15.3%

(cont.)
nr	structure	Vaccinia mCherry	VACV Venus inh
61	O=C1C2C3C=CC(CC3)C2C(=O)N1/N=C/c1ccccc1O (centres undefined)	i	-14.9%
62	CC(C)Cc1nn2c(=O)cc(COC(=O)CNC(=O)c3ccc(C(C)(C)C)cc3)nc2s1	-10.4%	-4.1%
63	Cc1cc(C)c(C)c(C(O)(C(=O)O)c2ccccc2)c1C (centres undefined)	i	-10.8%
64	C=CCCCOc1ccc(C(=O)O)cc1	i	-7.7%
65	CCCNC(=O)C1(C)CCN(C(=O)c2oc3ccccc3c2C)C1 (centres undefined)	27.5%	7.5%
66	CCOc1ccccc1N(C(=O)Nc1ccc(Cl)cc1)C1=NC(C)CS1 (centres undefined)	i	-16.4%
67	CCN(CC)S(=O)(=O)c1ccc(NC(=O)C(C)N(c2ccccc2)S(C)(=O)=O)cc1 (centres undefined)	/	-18.9%
68	Cc1nnc(NC(=O)CSC2CCCCC2)s1	-10.4%	14.0%
69	COc1ccccc1OCCCCOc1ccccc1F	-10.6%	-5.5%
70	Cc1ccc(NC(=O)CCN2C(=O)c3ccccc3C2=O)cc1	-8.8%	-12.4%
71	Cc1c(-c2ccccc2)nc2ccccc2c1C(=O)OCC(=O)Nc1ncc(C(F)(F)F)cc1Cl	-7.3%	-9.7%
72	CCCn1c2ccccc2c2cnn(CC(=O)Nc3ccc(C)cc3Br)c(=O)c21	-19.3%	-26.6%
73	COc1ccc(/C=C2\OC(=S)N(C)C2=O)cc1	-13.2%	-15.1%
74	COC(=O)C(C)n1cnc2c(nnn2-c2ccc(OC)cc2)c1=O (centres undefined)	-11.8%	-10.4%
75	CCOC(=O)c1ccc(NC(=O)c2csnn2)cc1	-3.3%	7.4%
76	CC(C)Cn1c(-c2csc(C(C)C)c2)n[nH]c1=S	i	-22.1%
77	CC(=O)c1c(N2CCOCC2)nc2ccc(Br)cc2c1-c1ccccc1	i	-7.1%
78	CN(C)C(=S)Oc1ccccc1-c1ccccc1OC(=S)N(C)C	-7.4%	3.3%
79	Cc1cc2nnc(SCc3ccc(F)cc3)n2c2ccccc12	-3.8%	-3.9%
80	Cn1c(=O)c(C(=O)NNC(=O)c2ccccc2F)c(O)c2ccccc21	?	6.5%
81	COc1ccccc1N1CCN(C(=O)CN2C(=O)c3ccccc3S2(=O)=O)CC1	-28.5%	6.0%
82	CCOC(=O)C(Cc1ccc(Cl)cc1Cl)c1ccno1 (centres undefined)	i	0.0%
83	C=CCNC(=O)NC(=O)CSc1nnc(C(F)(F)F)n1C	-14.8%	-2.9%
84	Cc1cccc([C@H]2[C@@H]3C=CCC[C@@H]3C(=O)N2Cc2ccccc2)c1	-7.2%	-15.7%
85	CCN(CC)c1nn2c(=O)c(C(=O)NCc3cccc(OC)c3OC)cnc2s1	-14.2%	-13.2%
86	CCOCCc1nn2c(=O)cc(COC(=O)COc3ccc(C)c(C)c3)nc2s1	-2.2%	-6.2%
87	O=C(COc1ccccc1)Nc1ccccc1N1CCCCC1	-16.6%	-19.2%
88	Cc1ccc(Cl)cc1NC(=O)C1CCCN(S(=O)(=O)c2cccc3cccnc23)C1 (centres undefined)	-17.0%	-24.3%
89	Cc1ccc(S(=O)(=O)N(C)CC(=O)Nc2ccc3c(c2)OCO3)cc1	-8.8%	-8.2%
90	COc1ccc(C)c2sc(N(Cc3cccnc3)C(=O)COc3ccccc3)nc12	-9.8%	-4.0%

Among those listed so far, 13 have a Cl atom.
nr	structure	Vaccinia mCherry	VACV Venus inh
1	CCOC(=O)C1(Cc2cccc(Cl)c2)CCCN(C(=O)CCC(=O)N(C)C)C1 (centres undefined)	i	-23.9%
25	COc1ccc(C(=O)Cn2c(Cl)nc3c2c(=O)n(C)c(=O)n3C)cc1	i[7.34 µM]	-1.4%[7.34 µM]
32	Cc1ccc(NC(=O)CCNS(=O)(=O)c2ccc3[nH]c(=O)oc3c2)c(Cl)c1	i	-10.1%
33	O=C(Cn1cc(C(F)(F)F)ccc1=O)N/N=C/c1ccc(Cl)cc1	-9.9%	-12.3%
36	CC(C)CC(c1nnnn1Cc1ccco1)N1CCN(c2cccc(Cl)c2)CC1 (centres undefined)	-11.9%	-26.2%
39	CC1CCCN1c1ccnc2cc(Cl)ccc12 (centres undefined)	-13.4%	-7.7%
46	CC(=O)N1CCN(C(=O)c2ccc(NS(=O)(=O)c3ccc(Cl)c(Cl)c3)cc2)CC1	-18.6%	-7.2%
51	Fc1ccccc1CNc1ccc(Cl)cc1	-18.6%	-15.3%
53	O=C(Nc1ccccc1)C1Cc2c(-c3ccc(Cl)cc3)ccnc2O1 (centres undefined)	i	8.9%
66	CCOc1ccccc1N(C(=O)Nc1ccc(Cl)cc1)C1=NC(C)CS1 (centres undefined)	i	-16.4%
71	Cc1c(-c2ccccc2)nc2ccccc2c1C(=O)OCC(=O)Nc1ncc(C(F)(F)F)cc1Cl	-7.3%	-9.7%
82	CCOC(=O)C(Cc1ccc(Cl)cc1Cl)c1ccno1 (centres undefined)	i	0.0%
88	Cc1ccc(Cl)cc1NC(=O)C1CCCN(S(=O)(=O)c2cccc3cccnc23)C1 (centres undefined)	-17.0%	-24.3%
